# From PubChem BioAssay
# VDR inh = blocks the human vitamin D receptor; P11473; VDR-SRC2-3 peptide fluorescence polarization, 2 h; Potency, µM, inactives show max response, negative = inhibition, hits mostly inhibitors; 0.93% of 400,000 active; AID 504847; active means well fitted inhibition curve with a large enough effect; inconclusive means small, poorly fitted or top-dose-only effect, or another doubt; inactive means no such curve, though single readings can be large or run the other way; further: series mostly up to about 120 µM
# Target sequence (P11473 whole entry, looked up): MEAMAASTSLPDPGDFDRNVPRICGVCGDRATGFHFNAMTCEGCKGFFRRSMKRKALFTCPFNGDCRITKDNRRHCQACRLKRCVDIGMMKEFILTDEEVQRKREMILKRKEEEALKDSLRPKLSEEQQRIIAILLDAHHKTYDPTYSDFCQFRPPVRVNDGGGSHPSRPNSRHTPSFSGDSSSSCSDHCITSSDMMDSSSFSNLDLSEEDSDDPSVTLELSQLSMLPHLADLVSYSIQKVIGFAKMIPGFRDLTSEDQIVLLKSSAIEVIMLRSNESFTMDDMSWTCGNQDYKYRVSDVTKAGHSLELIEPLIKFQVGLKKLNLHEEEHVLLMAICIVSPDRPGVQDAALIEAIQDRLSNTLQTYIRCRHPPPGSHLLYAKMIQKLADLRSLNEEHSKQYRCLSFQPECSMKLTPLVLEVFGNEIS
#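 Fluorescence polarization assay of small-molecule disruption of VDR binding to coregulator peptide SRC2-3. Compounds and controls pin-transferred, then read after 2 h incubation at ambient room temperature.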
# Active calls of the source: *; ? = inconclusive; & = joins results of further samples; [ ] = another dose, or the depositor's remark. On the % scale 0 is the no-effect control and ±100 the full control effect; potency means the concentration at half of the fitted maximal effect.
VDR inh | smiles
6.7% | O=C(O)C1CCCC2CN3CCc4c([nH]c5ccccc45)C3C(O)C21 (stereo not drawn)
-5.3% | CN(Cc1ccco1)C(=O)CN1C(=O)NC(c2ccccc2)(c2ccccc2)C1=O
-15.6% | CCn1c(SCc2nc3sc(C(=O)O)c(C)c3c(=O)[nH]2)nnc1-c1ccc(Cl)cc1
0.5% | COc1ccc(NC(=O)CSc2nc3ccccc3c(=O)n2CCNC(C)=O)c(OC)c1
-0.3% | COc1ccc(NC(=O)CN(C)C(=O)c2ccc(-c3cccc(C(F)(F)F)c3)o2)cc1
1.2% | OCC1OC(n2cnc3c(NCc4ccccc4O)ncnc32)C(O)C1O (stereo not drawn)
-2.0% | COCc1cc(C)nc(NCCc2ccccc2)c1C#N
-0.1% | O=C(C[n+]1ccc(-c2cc(C(=O)Nc3cccc(C(F)(F)F)c3)c3ccccc3n2)cc1)c1cccc([N+](=O)[O-])c1
2.5% | COc1ccc(CCNC(=O)c2cc3c(=O)n4ccccc4nc3n(CCCN3CCOCC3)c2=N)cc1
0.9% | CCC(CC)C(=O)Nc1cc([N+](=O)[O-])ccc1F
-24.3% | Cc1cccc(NC(=S)N/N=C2/CCCCc3ccccc32)c1
-9.7% | COc1cc(NC(=S)N2CCN(C)CC2)cc(OC)c1
2.9% | CC1CC(C)CN(CCCNC(=O)Cn2ncc3c(=O)oc4ccccc4c32)C1 (stereo not drawn)
-7.4% | O=C(O)c1cccc(O)c1O
4.2% | CCc1nnc(SCc2cccc(Cl)c2)c2cc3sccc3n12
-14.8% | NCCCC[C@H](NC(=O)[C@H](CS)NC(=O)[C@@H](N)Cc1cnc[nH]1)C(=O)N[C@@H](Cc1ccccc1)C(=O)N[C@@H](Cc1c[nH]c2ccccc12)C(=O)N[C@@H](Cc1c[nH]c2ccccc12)C(=O)O
-7.8% | COc1ccc(NC(=O)Nn2cnnc2)cc1OC
-6.4% | CCOC(=O)C1CCCN(C(=O)c2ccc([N+](=O)[O-])c(C)c2)C1 (stereo not drawn)
31.0%[activator] | Cc1cccc(OCc2nnc(SCc3nc4cc(C(F)(F)F)ccc4c(=O)[nH]3)o2)c1
-3.6% | O=C(Nc1cccc(S(=O)(=O)N2CCCCC2)c1)C1=NN(c2ccccc2)C(=O)CC1

# Reprinted from the part before: 2 compounds; new compounds follow.
VDR inh | smiles
31.0%[activator] | Cc1cccc(OCc2nnc(SCc3nc4cc(C(F)(F)F)ccc4c(=O)[nH]3)o2)c1
-3.6% | O=C(Nc1cccc(S(=O)(=O)N2CCCCC2)c1)C1=NN(c2ccccc2)C(=O)CC1
? | c1ccc(-c2cccc(N3CC4(CCNCC4)C3)c2)cc1
-2.6% | Cc1ccc2[nH]c(CSc3nnc(NC(=O)c4ccc(Cl)cc4)s3)cc(=O)c2c1
50.1µM* | Cc1ccccc1OCCN1C(=O)C(=O)c2cccc(C)c21
-5.8% | O=C(CSCc1ccc([N+](=O)[O-])cc1)Nc1ccccc1C(=O)O
-10.2% | CCCC(=O)c1ccc(N2CCN(C(=O)c3ccc(Br)cc3)CC2)c(F)c1
-16.6% | O=C(Nc1ccccc1C(=O)Nc1ccccn1)c1cc(F)c(F)cc1Cl
-0.4% | C/C(=C\C(=O)c1ccccc1)Nc1ccc(Cl)c(Br)c1
-16.5% | O=C(Nc1cc(C(F)(F)F)ccc1F)C1CCCCC1
-11.1% | CN=C(NC(=O)Nc1c(C)cccc1C)NC(=O)Nc1c(C)cccc1C
-25.6% | CN(Cc1ccccc1)c1nc(CN2CCOCC2)nc2scc(-c3ccccc3)c12
-4.1% | CCN1C(=O)C(=O)N(CC(=O)Nc2cccc(C(F)(F)F)c2)C1=O
16.5% | Cc1cccc(N2CCN(C(=O)CS(=O)(=O)Cc3nc(-c4ccccc4F)oc3C)CC2C)c1 (stereo not drawn)
-15.1% | CCN(CC(=O)Nc1ccc(NC(C)=O)cc1)C(=O)Cc1ccccc1F
-13.3% | Cc1nc(CC(=O)N2CCN(S(=O)(=O)c3ccccc3C#N)CC2)cs1
-4.0% | Cc1ccc(OCCC(=O)OC(C)C(=O)NC2CC2)cc1 (stereo not drawn)
11.6% | Cc1ccc(N(Cc2ccc([N+](=O)[O-])cc2)C(=O)c2ccco2)cc1
11.5% | CSCC(=O)Nc1nc(-c2ccc3c(c2)OCCO3)cs1
-20.1% | Clc1ccc(-n2nnc(-c3nccs3)n2)cc1Cl
-5.1% | CCCCn1nc2cc(C(=O)NCc3ccc(C(F)(F)F)cc3C(F)(F)F)ccc2c1OCC
-5.4% | Cn1c(=O)n(C)c2cc(/C=N/n3cnnc3)ccc21

# Printed as active in VDR inh (from the list above):
VDR inh | smiles
50.1µM* | Cc1ccccc1OCCN1C(=O)C(=O)c2cccc(C)c21

# Later entries:
VDR inh | smiles
0.0% | COc1ccc2c(c1)C(C)CC(C)(C)N2C(=O)CSc1nc2ccccc2s1 (stereo not drawn)
-12.3% | Cc1ccc(-n2c(SCC(=O)NCc3ccco3)nnc2-c2cccnc2)c(C)c1
-10.4% | O=C(CSc1ncnc2sc3c(c12)CCCC3)c1ccccc1
14.6% | COc1cc(C)ccc1OCC(=O)NC1CCCCCC1
-3.1% | CN(CCC1CCOCC1)C(=O)C1CCC(=O)N(CCc2ccccc2)C1 (stereo not drawn)
4.4% | CCCCC(=O)Nc1cccc(-c2cn3ccsc3n2)c1
-5.6% | CN=C(NC#N)NCCSC[C@H]1N=CN=C1C
1.0% | Cn1cccc1/C=C1\SC(=O)N(CC(=O)Nc2ccc(Cl)cc2)C1=O
-18.8% | COc1ccc(OC)c(NC(=O)CSc2nc3cccnc3n2C)c1
1.2% | CCOc1cc(C2Nc3cccc4cccc(c34)N2)ccc1O
0.8% | COc1ccc2c(c1OC)C(=O)N1C2SC[C@H]1C(=O)NC1CCCC1 (stereo partly drawn)
-2.8% | COc1ccccc1C(=O)NC(=S)N1CCc2ccccc21
7.9% | CC(c1ccccc1)C1C(C#N)=C(N)OC2=C1C(=O)CC(C)(C)C2 (stereo not drawn)
12.2% | CCc1nnc(NC(=O)C23CC4CC(CC(C4)C2)C3)s1
2.2% | Cc1ccc(CN2CCSc3ccc(C(=O)NCC(C)c4ccccc4)cc32)cc1 (stereo not drawn)
-0.3% | COc1ccccc1-c1ccc(SCC(=O)NC2CCCC2)nn1
-10.7% | COc1ccc(NC(=O)c2nnn(Cc3nc(-c4cc(OC)c(OC)c(OC)c4)oc3C)c2C)cc1Cl
-1.8% | CC[C@@]1(C(=O)OC)N[C@H](CN(C)C(C)=O)[C@@H]2C(=O)N(C)C(=O)[C@@H]21
-1.3% | CCCNS(=O)(=O)c1ccc(OCC(=O)NCC2CCCO2)cc1 (stereo not drawn)
-2.1% | Cc1ccc(CSC2=Nc3ccccc3C3=NC(CC(=O)NC4CCCCC4)C(=O)N23)c(C)c1 (stereo not drawn)

# Molecules above with bromine (2):
VDR inh | smiles
-10.2% | CCCC(=O)c1ccc(N2CCN(C(=O)c3ccc(Br)cc3)CC2)c(F)c1
-0.4% | C/C(=C\C(=O)c1ccccc1)Nc1ccc(Cl)c(Br)c1

# The listing continues:
VDR inh | smiles
-3.5% | Cc1noc(C)c1COC(=O)COc1ccc(-c2ccccc2)cc1
-5.6% | Cc1ccc(C(C)C)c(OC(C)C(=O)NCC2(N(C)C)CCCCC2)c1 (stereo not drawn)
14.8% | CC(c1ccccc1F)n1cc(C(=O)NCCCn2ccnc2)nn1 (stereo not drawn)
0.8% | CCOc1cc(C(=O)Nc2ccc(-c3nnc4n3CCCCC4)cc2)cc(OCC)c1OCC
0.0% | COCCNC(=S)N/N=C(\C)CCc1ccc2c(c1)OCO2
4.3% | COCCNC(=O)C(c1ccc(C)o1)N(Cc1ccco1)C(=O)c1snc(C(N)=O)c1N (stereo not drawn)
-8.5% | Cc1cc(C)cc(N(CCC#N)C(=O)COC(=O)c2ccc(OCc3c(C)noc3C)cc2)c1
0.9% | CC(C)c1ccc(OCC(=O)Nc2c(C(=O)c3ccc(F)cc3)oc3ccccc23)cc1
-16.2% | COC(=O)c1ccc(NC(=O)CCN2C(=O)CSC2=O)cc1
-14.2% | CCn1nnnc1SCC(=O)c1cc(Cl)ccc1OC
-10.4% | CCc1cc(=O)oc2cc(OCC(=O)NCCCN3CCCC3=O)c(Cl)cc12
-11.5% | O=C(CN1C(=O)c2ccccc2C1=O)NCC1COc2ccccc2O1 (stereo not drawn)
9.4% | O=C(NCCCN1CCN(c2ccccc2F)CC1)C1COc2ccccc2C1 (stereo not drawn)
15.8% | CC(C)Cn1nnc2c(=O)oc3ccccc3c21
-2.8% | Cc1ccc(S(=O)(=O)N2CCC(C(=O)N[C@H](C(=O)NCc3ccco3)C(C)C)CC2)cc1
3.4% | CCOC(=O)Cc1csc(NS(=O)(=O)c2ccc3ccccc3c2)n1
-3.4% | CCNc1nc(N)c(C(=O)C23CC4CC(CC(C4)C2)C3)s1
-7.9% | COc1ccc(OC)c(/C=C/C(=O)Nc2cccc(S(=O)(=O)N3CCCC3)c2)c1
-0.4% | CC(NC(=O)NCc1cccnc1)(C(F)(F)F)C(F)(F)F
-17.2% | OCC1(Cc2cccc(Cl)c2)CCCN(Cc2cn[nH]c2C2CCCCC2)C1 (stereo not drawn)

# Overlap with the part before: 5 compounds, then new ones.
VDR inh | smiles
3.4% | CCOC(=O)Cc1csc(NS(=O)(=O)c2ccc3ccccc3c2)n1
-3.4% | CCNc1nc(N)c(C(=O)C23CC4CC(CC(C4)C2)C3)s1
-7.9% | COc1ccc(OC)c(/C=C/C(=O)Nc2cccc(S(=O)(=O)N3CCCC3)c2)c1
-0.4% | CC(NC(=O)NCc1cccnc1)(C(F)(F)F)C(F)(F)F
-17.2% | OCC1(Cc2cccc(Cl)c2)CCCN(Cc2cn[nH]c2C2CCCCC2)C1 (stereo not drawn)
2.7% | CC(=O)NC12CC3CC(C1)CC(C(=O)N1CCN(S(=O)(=O)c4cccc(C(F)(F)F)c4)CC1)(C3)C2
4.5% | Fc1ccc(-c2nnc3ccccn23)cc1
-1.3% | N/C(=N/S(=O)(=O)c1ccccc1)c1cccc([N+](=O)[O-])c1
-18.9% | CSc1nnc(Cn2c(=O)sc3ccccc32)n1C
-15.8% | COc1ccc(NS(=O)(=O)c2ccc(OCC(=O)N3CCCC3)cc2)cc1
10.2% | Cc1csc(=O)n1CC(=O)OCC(=O)NC(C)c1ccc(F)cc1 (stereo not drawn)
-9.4% | CCN1C(=O)CSC1=Nc1ccccc1Cl
-13.7% | O=C(Nc1ncc(Cc2cccc([N+](=O)[O-])c2)s1)c1ccco1
0.5% | Cc1cc(C)c(NC(=O)COc2ccc(-n3cnnn3)cc2)c(C)c1
-13.1% | CCn1c(/C=C/N(C)c2ccccc2)[n+](CC)c2ccc(Cl)cc21
0.1% | COc1ccc(-c2cc3nc(C)c(CCC(=O)NCc4ccco4)c(C)n3n2)c(OC)c1
-16.3% | CC(C)Cn1nc(C(=O)Nc2nnc(C3CC3)s2)c2ccccc2c1=O
3.0% | CC1(c2ccccc2)NC(=O)N(CC(=O)N2CCN(S(=O)(=O)c3c(F)cccc3F)CC2)C1=O (stereo not drawn)
? | O=C(c1cc(C(F)(F)F)cc(C(F)(F)F)c1)N1CCC[C@@]2(CCN(c3ccccc3)C2)C1
3.3%&-7.2% | Clc1ccc(N2CCN(Cc3cc4ccccn4n3)CC2)cc1
-15.6% | CCCCN(C(=O)Cc1coc2cc(C)c(C)cc12)c1c(N)n(Cc2ccccc2)c(=O)[nH]c1=O
-11.6% | CCC(C)(C)n1nnnc1C(c1ccccc1OC)N1CCSCC1 (stereo not drawn)
1.7% | CC1CCN(C(=O)COC(=O)CCC(=O)c2ccc(F)cc2)CC1
-10.1% | CCn1cc(C(=O)NCCCN2CCN(C)CC2)c(=O)c2cc(S(=O)(=O)N3CCc4ccccc4C3)ccc21
-2.9% | C/C(=N\NC(N)=S)C12CC3CC(CC(C3)C1)C2
4.0% | COc1ccc(OC)c(S(=O)(=O)Nc2cnc3ccccc3c2)c1
4.7% | O=c1[nH]c(N2CCN(c3ccccc3)CC2)nc2c1CCC2
-17.3% | O=S(=O)(c1cc(Cl)cc(Cl)c1)N1CCN(c2nc(-c3cccs3)nc3ccccc23)CC1
-1.4% | COc1ccc2cc(C(=O)N3CCN(Cc4ccc5c(c4)OCO5)CC3)[nH]c2c1
7.2% | COc1ccc(CC(=O)NCC(c2cccs2)S(=O)(=O)c2ccc(F)cc2)cc1 (stereo not drawn)
-11.7% | Cc1c(Cl)cccc1NC(=O)CCC(=O)c1cccs1
? | N#Cc1c(NC(=S)NC(=O)c2ccccc2)sc2c1CCC2
79.4µM* | O=C(Nc1cc(Cl)ccc1Cl)c1cc([N+](=O)[O-])cc(Br)c1O
8.1% | O=C(COc1ccc2c3c(c(=O)oc2c1)CCC3)N1CCN(c2ccc(F)cc2)CC1
-15.4% | COC(=O)c1[nH]c2ccccc2c1NC(=O)c1c(F)cccc1F
-0.9% | COC(=O)c1cc(Br)c(=O)n(CC(C)C)c1
-5.1% | Cc1cccc(NC(=O)c2ccc(Cl)c(S(=O)(=O)N3CCCCC3)c2)n1
2.6% | O=C(COC(=O)/C=C/c1ccccc1)NC1CCCCCC1
-0.7% | COCCn1c(C(C)C)nc2ccccc21
2.5% | O=C(Cc1c(F)cccc1Cl)Nc1ncc([N+](=O)[O-])s1
15.8µM* | COc1ccc(N2CSC3=C(C#N)C(c4cc(OC)ccc4OC)CC(=O)N3C2)c(OC)c1 (stereo not drawn)
-0.9% | Cc1nc(NCCCN2CCOCC2)c2oc3ccccc3c2n1
15.1% | COc1ccc(CN(C)c2ccc(-c3nc(C)no3)cc2[N+](=O)[O-])cc1
-21.7% | Cc1nc2cc(C(=O)N3c4ccccc4CC3C)ccc2s1 (stereo not drawn)
3.4% | Cc1nc2ccccc2c2c1C(=O)N(c1ccc(C(=O)O)cc1)C2=O
-7.0% | Nc1c(-c2ccccc2)cnn1-c1cccc(C(F)(F)F)c1

# Some of the compounds tested. The share of hits here may be higher or lower than overall.
